High-throughput results deposited in PubChem BioAssay by several laboratories.
Arbovirus anti: blocks arbovirus infection; arbovirus infection cell-based antiviral screen; inhibition, % at 10 µM; hit rate 0.37% among 200,000; AID 1251;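 active = inhibition from about 30%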;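 note: bluetongue infection of BSR cells; cell survival read as ATP light after 72 h; 0% = infected wells without compound and 100% = uninfected wells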
YopH PTP inh: inhibitors of Yersinia enterocolitica YopH tyrosine phosphatase. fluorescence Ex485/Em525. inhibition, %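 (about 10 µM by stock and volumes)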. hit rate 0.16% among 140,000. AID 898;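 active = inhibition of 50% or more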;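 note: controls were vehicle for no effect and minimum signal wells for full effect; inactives centre near -20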
Mtb H37Rv: M. tuberculosis H37Rv growth inhibitors, H37Rv strain (AID 1626). M. tuberculosis H37Rv growth inhibition; higher % means a stronger effect. inhibition, % at 10 µM, or IC50 in µM where a hit was titrated. hit rate 0.95% among 220,000;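 active = confirmed in a dose series; inconclusive = inhibition above 80% but not taken into the dose series; inactive = below 80% or under 30% at every dose of the series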;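 note: bacteria incubated seven days before Alamar blue readout; 0% = bacteria only wells and 100% = bacteria with antibiotic wells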
Mtb betalactam: beta-lactam sensitization of Mtb H37Rv | M. tuberculosis H37Rv growth with meropenem, percent inhibition; hits of this screen are not shown here | inhibition, % at 25 µM | hit rate 0.27% among 330,000 | AID 434955;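 active = about 74% or more and at least 40 points above the plate without the antibiotic, then above 30% in a dose series; inconclusive = first-round hits that could not be retested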;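 note: growth measured after seven days incubation then overnight dye step; 0% = bacteria only wells and 100% = bacteria with antibiotic; twin plates without the antibiotic show which effects depend on it; some results filed as inactive read as strong as hits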
RecA intein inh: blocks M. tuberculosis RecA intein splicing | P9WHJ3 | hit rate 0.75% among 290,000 | cell-free RecA intein splicing, fluorescence | inhibition, %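 (about 9 µM by stock and volumes)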; in the data active = inhibition above about 30%; inconclusive = no clear call, values can overlap the other calls;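 note: 0% = vehicle wells and 100% = reference inhibitor control wells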
Target sequence (P9WHJ3 whole entry, looked up): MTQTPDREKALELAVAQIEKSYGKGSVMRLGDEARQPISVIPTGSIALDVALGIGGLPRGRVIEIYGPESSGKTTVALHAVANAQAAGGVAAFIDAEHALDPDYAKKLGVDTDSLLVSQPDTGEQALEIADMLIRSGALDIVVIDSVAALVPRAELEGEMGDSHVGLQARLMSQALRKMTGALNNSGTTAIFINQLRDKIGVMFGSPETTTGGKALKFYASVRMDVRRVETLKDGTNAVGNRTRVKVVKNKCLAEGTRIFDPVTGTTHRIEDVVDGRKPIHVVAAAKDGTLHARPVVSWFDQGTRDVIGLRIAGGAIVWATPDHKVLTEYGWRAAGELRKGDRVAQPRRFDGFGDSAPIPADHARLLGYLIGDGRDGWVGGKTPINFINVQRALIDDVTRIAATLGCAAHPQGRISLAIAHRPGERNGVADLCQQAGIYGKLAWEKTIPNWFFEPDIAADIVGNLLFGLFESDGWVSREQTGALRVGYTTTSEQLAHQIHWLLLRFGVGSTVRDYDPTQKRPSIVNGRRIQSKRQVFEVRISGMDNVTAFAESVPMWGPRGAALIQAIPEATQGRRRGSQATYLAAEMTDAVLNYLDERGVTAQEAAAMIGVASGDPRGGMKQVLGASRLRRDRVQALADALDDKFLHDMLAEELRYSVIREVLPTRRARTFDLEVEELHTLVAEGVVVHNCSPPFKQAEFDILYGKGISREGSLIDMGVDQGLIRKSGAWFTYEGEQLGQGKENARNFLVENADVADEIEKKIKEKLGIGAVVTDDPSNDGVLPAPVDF
Arbovirus anti repeat: recorded beside Arbovirus anti, whose call it bears; inhibition, %; measured here: 10K subset replicate screen; many hits read low in the repeat;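 first of two repeat runs on a subset; 0% = infected and 100% = uninfected wells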
The depositor's hits bear a star; ? = inconclusive; / = not tested or not shown.

SMILES	Arbovirus anti	YopH PTP inh	Mtb H37Rv	Mtb betalactam	RecA intein inh	others
COc1ccc(NC(=O)c2ccccc2NC(=O)C2CCCO2)cc1 (stereo not given)	-2	-13	1%	13	-2.1
Cc1ccc(-c2cc(C(=O)N/N=C/c3ccc(F)cc3)n[nH]2)o1	/	/	/	-5	2.3
CCOc1ccc(N)c(SSc2cc(OCC)ccc2N)c1	/	/	/	32	2.3
CCCCOC(=O)Nc1cccc(C(C)=O)c1	-4	-38	-9%	1	7.4
O=C(Cc1ccccc1)NNC(=S)Nc1ccc(Cl)cc1	0	-13	4%	-7	-0.8
Oc1c(Cl)cc(Cl)cc1C=Nc1cc(C(F)(F)F)ccc1N1CCc2ccccc2C1	/	/	25%	5	2.6
COCCCNC(=S)NNC(=O)c1ccc2c(c1)OCO2	1	-33	-7%	-4	-1.0
Nc1c(C(=O)Nc2ccc(F)cc2)sc2nc(-c3ccco3)ccc12	-9	-52	2%	26	-65
CSCC[C@H](NC(=O)[C@@H]1Cc2ccccc2CN1)C(=O)Nc1ccc2c(c1)OCCO2	/	/	/	-1	-0.5
C=CCN(CC=C)C(=S)NC(=O)c1ccc(C)c(Br)c1	-21	-24	?	94	0.5
COc1ccc(OC)c(-n2c(SCC(=O)Nc3cc(C)on3)nnc2-c2c[nH]c3ccccc23)c1	6	/	6%	-5	8.3	Arbovirus anti repeat=14
COc1ccc(-n2c(/C=C/c3ccc4c(c3)OCO4)nc3ccccc3c2=O)cc1	-13	-17	8%	-1	5.1
Cc1cccc(N2CCN(CC(O)COc3ccc(Cl)cc3)CC2)c1 (stereo not given)	/	/	/	-2	-1.1
O=C(Nc1ccc(Cl)cc1)C1CCCN(c2cnccn2)C1 (stereo not given)	/	/	/	-5	1.4
Cc1nnsc1SC(C)C(=O)O (stereo not given)	1	-39	-13%	-2	/
Fc1ccc(-c2nc3c(-c4ccc(F)cc4)cnn3cc2CCN2CCOCC2)cc1	4	/	3%	-1	10
NC(=O)C1(N2CCCCC2)CCN(C(=O)CSc2nc(C(F)(F)F)cc(=O)[nH]2)CC1	7	-25	7%	6	3.4
CN1C(=O)Cn2c1nc1ccccc12	-12	-15	-7%	-8	-1.1
NC(=O)C1CCN(C(=O)c2cccc(S(=O)(=O)N3CCc4ccccc4C3)c2)CC1	11	/	3%	-4	-3.4
Cc1ccc(C(=O)Nc2ccccc2Oc2ccccc2)cc1[N+](=O)[O-]	-7	0	/	10	-2.7

Next part; the last 3 above are carried over.
SMILES	Arbovirus anti	YopH PTP inh	Mtb H37Rv	Mtb betalactam	RecA intein inh	others
CN1C(=O)Cn2c1nc1ccccc12	-12	-15	-7%	-8	-1.1
NC(=O)C1CCN(C(=O)c2cccc(S(=O)(=O)N3CCc4ccccc4C3)c2)CC1	11	/	3%	-4	-3.4
Cc1ccc(C(=O)Nc2ccccc2Oc2ccccc2)cc1[N+](=O)[O-]	-7	0	/	10	-2.7
COc1ccc(C2C(C#N)=C(N)Oc3cc(C)n(CCN4CCOCC4)c(=O)c32)cc1OC (stereo not given)	5	-3	-3%	-11	-1.5
COc1ccc(C(=O)N2CCC(C(=O)Nc3ccc4c(c3)OCO4)CC2)cc1	0	-42	0%	-5	2.2
Cc1cc(/C=C2\SC(=S)NC2=O)c(C)n1C	1	-25	-5%	1	-5.4
Cc1ccc2c(cnn2C(=O)CCC(=O)NC2CCCC2)c1	/	/	/	0	1.9
O=C(NCC1CCN(S(=O)(=O)c2ccccc2)CC1)Nc1ccc(F)cc1F	/	/	-7%	-6	0.7
CCCCOc1ccc(C(=O)NCC(=O)N(C)CC(=O)Nc2ccc(N3CCOCC3)cc2)cc1	/	/	/	-5	0.7
CC1(C)CC(=O)CC(C2(O)C(=O)N(Cc3ccccc3)c3ccccc32)O1 (stereo not given)	-11	-26	5%	1	-0.7	Arbovirus anti repeat=-8
COc1ccc(-c2c(C)n([O-])c(C)c(-c3ccccc3)[n+]2=O)cc1OC	-2	-21	-5%	2	0.0
CCOC(=O)c1ccc(NC(=O)Cn2nc(C)c3ccccc3c2=O)cc1	/	/	/	-14	-2.6
COc1ccccc1NS(=O)(=O)CC12CCC(CC1=O)C2(C)C (stereo not given)	1	-26	1%	5	-0.7
O=C(CN1CCN(Cc2ccc(Cl)cc2)C1=O)NCc1cccs1	3	/	-4%	-1	-3.7
CCOC(=O)N1CCN(C(=S)Nc2cccc(C)c2)CC1	8	-11	-5%	4	-2.2
CC(=O)Nc1csc2ccccc12	3	/	-9%	0	-0.1
O=C(NCc1ccc(Cl)cc1Cl)c1ccccn1	-7	-31	-4%	1	/
Cc1ccc(S(=O)(=O)N(CC(O)CN(C)C)c2ccccc2)cc1 (stereo not given)	2	-3	-19%	-14	-2.9
Cn1c(SCC(=O)c2ccc3c(c2)Cc2ccccc2-3)nnc1-c1cccc(N)c1	-3	-12	10%	-10	0.6
Cc1ccc(NC(=O)CCc2c(C)nn(-c3ccc(N4CCOCC4)nn3)c2C)c(C)c1	/	/	/	-3	-0.8
c1ccc2oc(-c3[nH]ncc3CN3CCC(N4CCSCC4)CC3)cc2c1	-10	/	5%	2	-3.4
Cc1csc(NC(=O)CCc2ccc(S(=O)(=O)N3CCOCC3)cc2)n1	4	-35	2%	-4	6.9
CSc1nnc2n(C)c3c(c(=O)n12)C1(CCCC1)Cc1ccccc1-3	2	-3	3%	-6	2.7

Reprinted from the part before: 7 compounds; new compounds follow.
SMILES	Arbovirus anti	YopH PTP inh	Mtb H37Rv	Mtb betalactam	RecA intein inh	others
O=C(NCc1ccc(Cl)cc1Cl)c1ccccn1	-7	-31	-4%	1	/
Cc1ccc(S(=O)(=O)N(CC(O)CN(C)C)c2ccccc2)cc1 (stereo not given)	2	-3	-19%	-14	-2.9
Cn1c(SCC(=O)c2ccc3c(c2)Cc2ccccc2-3)nnc1-c1cccc(N)c1	-3	-12	10%	-10	0.6
Cc1ccc(NC(=O)CCc2c(C)nn(-c3ccc(N4CCOCC4)nn3)c2C)c(C)c1	/	/	/	-3	-0.8
c1ccc2oc(-c3[nH]ncc3CN3CCC(N4CCSCC4)CC3)cc2c1	-10	/	5%	2	-3.4
Cc1csc(NC(=O)CCc2ccc(S(=O)(=O)N3CCOCC3)cc2)n1	4	-35	2%	-4	6.9
CSc1nnc2n(C)c3c(c(=O)n12)C1(CCCC1)Cc1ccccc1-3	2	-3	3%	-6	2.7
CCOC(=O)c1ccc(NC(=S)N2CCN(c3ccccn3)CC2)cc1	/	/	/	5	-4.8
N=C1/C(=C\c2ccc(Br)o2)C(=O)N=C2SC(CC(=O)N3CCOCC3)=NN12	/	/	/	-7	2.4
COc1cc2cc(C(c3nnnn3C3CCCCC3)N(C)C3CCCCC3)c(=O)[nH]c2cc1OC (stereo not given)	-29	-21	11%	-5	4.5
Cc1cc(C)n(-c2ccc(Cl)c(C(=O)OCC(N)=O)n2)n1	-23	1	-5%	5	-3.0
Cc1nc2ccccc2c2c1C(=O)NC2=O	/	/	-5%	-15	60*
NCCCNC(=O)c1ccc(/C=N/O)nc1	-3	/	-4%	-1	4.1
CCOc1ccc(Cc2c(Cl)nc(SC)nc2OC)cc1	2	-48	0%	8	-3.8
CN(C(=O)C1CCOC1)c1nnc(-c2cnccn2)s1 (stereo not given)	-4	-12	-6%	-6	0.7
O=C1c2ccccc2C(=O)N1CN(C(=O)COc1ccccc1)c1ccc(F)cc1	3	-11	-4%	-5	2.1
COc1cc2ccccc2cc1C(=O)Nc1ccc(N2CCOCC2)cc1	/	/	/	-4	-7.2
CC(C)CCSc1ncnc2c1oc1nc3c(cc12)COC(C)(C)C3	-37	-8	4%	31	0.0
CCCCOC1CC(c2ccc(OCc3ccc(OC)cc3)c(OC)c2)N(C)O1 (stereo not given)	26	/	10%	35	1.5
COC(=O)c1ccc(-c2noc(CN(Cc3ccccn3)CC3CCCO3)n2)cc1 (stereo not given)	3	/	/	3	7.8
Cc1noc(C)c1COC(=O)c1cc(C)n(-c2ccccc2)c1C	-4	-35	-3%	-1	13
O=c1c2ccccc2nc(SCC2CCCCO2)n1-c1ccccc1 (stereo not given)	1	-28	16%	1	0.8
Cc1ccc(OC(C)C)c(CN(CCO)CCO)c1	4	-1	-2%	1	1.6
O=C(CCc1ccccc1)NNC(=O)c1ccccc1Cl	/	/	/	-1	-2.9
CCc1ccc(OCC(=O)NC(NC(=S)Nc2ccccc2)C(Cl)(Cl)Cl)cc1 (stereo not given)	-20	-26	7%	5	-6.6
CC(=O)O[C@]1(C(C)=O)CC[C@H]2[C@@H]3C=CC4=CC(=O)C=C[C@]4(C)[C@H]3CC[C@@]21C	/	/	/	-2	4.8
O=C(C1CCCN(Cc2ccccc2)C1)N1CCc2ccccc2C1 (stereo not given)	2	-11	-1%	-13	-3.0
Cc1cccc(NS(=O)(=O)c2ccc(NS(=O)(=O)c3cccs3)cc2)c1	/	/	/	3	0.5
COc1ccc(/C=N/NC(=O)CC(=O)NCc2cccnc2)cc1	2	-24	-3%	-2	-1.7
O=C(Nc1cc2c(oc1=O)CCCC2=O)c1cccc(Cl)c1	0	-26	5%	-9	0.0
Cc1ccccc1OC/C(O)=C(\C#N)c1nc2ccccc2[nH]1	-7	-27	-3%	3	4.7
CCOC(=O)N1CCN(C(=O)C2CCCN(c3nc4ccc(OCC)cc4s3)C2)CC1 (stereo not given)	-3	-7	12%	-6	5.2	Arbovirus anti repeat=-1
Cn1nc(CC(=O)Nc2ccc3c(c2)OCCO3)c2ccccc2c1=O	4	-12	3%	-2	2.0
CCOC(=O)c1ccccc1NC(=O)CSc1nc(N)cc(=O)[nH]1	/	/	-1%	1	-3.9
Cc1nn(CC(=O)Nc2ccc(Cl)cc2)c(=O)c2cc(-c3ccccc3)nn12	/	/	/	6	-0.8
CCCc1cc(C(=O)Nc2cccc3ccccc23)n(C)n1	/	/	/	4	1.3
Cc1cnc2cc(Cl)c(Cl)cc2n1	-1	40	-8%	-6	0.5
CCCCNC(=O)[C@H](CSCc1ccccc1)N1Cc2ccccc2C1=O	-8	-25	-1%	4	0.2
O=S(=O)(c1ccc2ccccc2c1)N1CCCOC1	6	-48	2%	-4	0.5
Cc1ccc(C)c(Cn2nnc3c(=O)[nH]c(C(=O)NCC4CCCO4)nc32)c1 (stereo not given)	1	25	1%	-3	-1.1
CCOc1ccc(CNc2ccc(S(N)(=O)=O)cc2)cc1	6	/	5%	7	-0.2
CCOc1ccc(Nc2ncnc3c2cnn3Cc2ccccc2)cc1	-12	-26	3%	38	-1.2
COc1cc(C(=O)N(Cc2ccco2)Cc2cc3ccccc3[nH]c2=O)cc(OC)c1OC	6	-41	-2%	-5	-1.9
COc1ccc(CCNC(=O)c2c(-c3ccccc3)noc2C)cc1OC	-3	-48	-2%	4	0.4	Arbovirus anti repeat=3
CN(C)CCNC(=O)c1ccc(CS(=O)(=O)c2c(Cl)cccc2Cl)o1	7	-39	-3%	?	0.2	Arbovirus anti repeat=-1
CC(=O)Oc1cccc(Nc2ncnc3ccccc23)c1	/	/	/	-1	-0.3
CCCc1nc2n[nH]c(N)c2c2c1COC(C)(C)C2	-3	-20	-6%	?	0.5
Oc1cc(O)c2c(c1)O[C@H](c1ccc(O)c(O)c1)[C@H](O)C2	/	/	/	1	36*
C/C(=N\Nc1nc(N2CCOCC2)nc(N2CCOCC2)n1)c1cccs1	3	/	-4%	7	-2.1
CC(C)c1onc(C(=O)Nc2cccc(O)c2)c1[N+](=O)[O-]	2	/	-19%	-3	-3.7
Cc1ccc(N2C(=O)C(c3c(C)[nH]n(-c4ccccc4)c3=O)(C(F)(F)F)C3=C2CC(C)(C)CC3=O)cc1 (stereo not given)	21	-21	2%	-7	2.8
CC1(C)Cc2c(sc3nc(SCC(=O)N4CCOCC4)nc(N)c23)CO1	-1	-38	-1%	-4	1.8	Arbovirus anti repeat=0
Cc1ccc(N2C(=O)/C(=C/c3cccnc3)SC2=S)cc1	15	-27	-9%	7	3.1

Only part of the results is shown; count on the stated rates, not on these rows.
